Yeast UUG start = yeast start codon fidelity modulation; S. cerevisiae UUG-firefly luciferase reporter, luminescence/redox ratio; activity score, % at 18.7 µM; 350,000 compounds, 0.13% hits;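 active = replicate mean at a twofold rise or more, about +100% in these data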;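 note: firefly luciferase made from a UUG start codon reports start codon fidelity; reporter light over untreated wells divided by growth signal over untreated wells; some hits fall short of that in this replicate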
The depositor's hits bear a star. Not all compounds are listed, so the mix of outcomes need not match the whole.

SMILES | Yeast UUG start
C[C@@H]1CN([C@@H](C)CO)C(=O)c2cc(NS(=O)(=O)c3cccs3)ccc2O[C@@H]1CN(C)Cc1ccc2c(c1)OCO2 | -3
CCC(=O)N1C[C@H](C)[C@H](OC)CN(C)C(=O)c2cc(NC(=O)c3ccccc3)ccc2OC[C@H]1C | 10
COCC(=O)N1C[C@@H](C)[C@H](OC)CN(C)C(=O)c2cc(NC(=O)c3ccc(F)cc3)ccc2OC[C@H]1C | 10
CO[C@@H]1CN(C)C(=O)c2cc(NC(=O)Nc3cccc(F)c3)ccc2OC[C@H](C)NC[C@@H]1C | -11
O=C(c1ccccn1)N1CC[C@H]2[C@H](CO)Nc3ccc(-c4ccccc4)cc3[C@H]21 | 8
O=C(NCC1CC1)[C@@H]1[C@@H](CO)[C@@H]2Cn3c(cccc3=O)[C@@H]2N1C(=O)CC1CC1 | 7
Cc1noc(C)c1S(=O)(=O)Nc1ccc2c(c1)C(=O)N([C@H](C)CO)C[C@H](C)[C@H](CN(C)C(=O)Nc1ccc3c(c1)OCO3)O2 | 2
O=C(c1cccnc1)N1C[C@H]2[C@@H](c3ccccc31)[C@@H](CO)N2C(=O)C1CC1 | 48
CC(C)NC(=O)N(C)C[C@@H]1Oc2ccc(NC(=O)c3ccncc3)cc2CC(=O)N([C@@H](C)CO)C[C@H]1C | 2
CCN(C[C@@H]1[C@@H](c2ccccc2)[C@@H](CO)N1C(C)=O)C(=O)NC1CCCC1 | -6
C[C@@H]1CN([C@@H](C)CO)C(=O)c2cc(NC(=O)NC3CCCCC3)ccc2O[C@@H]1CN(C)S(=O)(=O)c1ccc(Cl)cc1 | -2
CN1c2ccc(-c3ccc(C#N)cc3)cc2[C@@H]2[C@@H](CCN2C(=O)Nc2cccc(F)c2)[C@@H]1CO | -9
COc1ccc(NC(=O)N(C)C[C@H]2OCc3ccccc3-c3c(n(C)c4ccccc34)C(=O)N([C@H](C)CO)C[C@@H]2C)cc1 | 24
CC(C)NC(=O)Nc1ccc2c(c1)C(=O)N([C@@H](C)CO)C[C@H](C)[C@@H](CN(C)C(=O)NC(C)C)O2 | -6
CC(C)NC(=O)Nc1ccc2c(c1)CC(=O)N([C@@H](C)CO)C[C@H](C)[C@@H](CN(C)Cc1ccncc1)O2 | -1
C[C@@H]1CN([C@@H](C)CO)C(=O)c2cc(NC(=O)Cn3cnnn3)ccc2O[C@@H]1CN(C)S(=O)(=O)c1cn(C)cn1 | 10
O=C(C[C@H]1CC[C@@H]2[C@H](COC[C@H](O)CN2S(=O)(=O)c2ccccc2)O1)NCc1ccc2c(c1)OCO2 | 11
O=C(c1cccc(F)c1)N1CCCCN2[C@H](C1)[C@@H](c1ccc(C#CC3(O)CCCC3)cc1)[C@@H]2CO | 12
CO[C@@H]1CN(C)C(=O)c2ccc(NC(=O)C3CC3)cc2OC[C@H](C)N(Cc2ccccc2)C[C@@H]1C | 26
C[C@@H]1CN([C@H](C)CO)C(=O)c2cc(NC(=O)Nc3ccc4c(c3)OCO4)ccc2O[C@H]1CN(C)Cc1ccc(Cl)c(Cl)c1 | -3
Cc1noc(C)c1NC(=O)N(C)C[C@@H]1Oc2c(NC(=O)C3CCCCC3)cccc2C(=O)N([C@@H](C)CO)C[C@@H]1C | -19
COCC(=O)Nc1ccc2c(c1)C(=O)N(C)C[C@H](OC)[C@@H](C)CN(Cc1cccc(F)c1)[C@H](C)CO2 | 13
COc1ccc(NC(=O)N2CCCCN3[C@H](CO)[C@H](c4ccc(C5=CCCC5)cc4)[C@@H]3C2)cc1 | 10
OC[C@@H]1[C@H](c2ccc(-c3ccccc3)cc2)[C@H]2CN(Cc3ccccn3)CCCCN12 | -35
Cc1noc(C)c1NC(=O)Nc1cccc2c1O[C@H](CN(C)S(=O)(=O)c1cccs1)[C@H](C)CN([C@H](C)CO)C2=O | 1
O=C(Nc1ccccc1)N1CCCCN2[C@H](C1)[C@H](c1ccc(C3=CCCCC3)cc1)[C@@H]2CO | 21
CC(=O)N1[C@@H](CO)[C@@H](c2ccc(-c3ccccc3)cc2)[C@@H]1CNC(=O)C1CC1 | 0
CO[C@H]1CN(C)C(=O)c2cc(NC(=O)C3CC3)ccc2OC[C@@H](C)N(Cc2ccccc2)C[C@H]1C | 6
C[C@@H]1CN([C@H](C)CO)C(=O)c2cc(NS(C)(=O)=O)ccc2O[C@@H]1CN(C)S(C)(=O)=O | -13
CO[C@@H]1CN(C)C(=O)c2cc(NS(=O)(=O)c3cccc(C)c3)ccc2OC[C@@H](C)N(C(=O)Cc2cccnc2)C[C@H]1C | -14
OC[C@H]1[C@@H](c2ccc(-c3ccccc3F)cc2)[C@@H]2CN(Cc3cccnc3)CCCCN12 | -7
COCCNC(=O)C[C@@H]1CC[C@@H]2[C@H](COc3ccc(NC(=O)c4cc(C)on4)cc3C(=O)N2C)O1 | -11
CCCNC(=O)Nc1ccc2c(c1)C(=O)N(C)C[C@H](OC)[C@H](C)CN(Cc1cccnc1)[C@@H](C)CO2 | -14
COc1ccc(NC(=O)Nc2ccc3c(c2)C(=O)N([C@H](C)CO)C[C@@H](C)[C@@H](CN(C)C(=O)Nc2c(C)noc2C)O3)cc1 | -44
CCC(=O)N1[C@H](CO)[C@H]2c3ccccc3N(S(=O)(=O)c3ccccc3C)C[C@H]21 | -2
CN1c2ccc(-c3cccc(F)c3)cc2[C@H]2[C@H](CCN2C(=O)Cc2cccnc2)[C@H]1CO | -16
O=C(Nc1cccc(F)c1)N1C[C@@H]2[C@H](c3ccccc31)[C@H](CO)N2C(=O)Cc1ccccn1 | 20
C[C@@H](NC(=O)C[C@H]1CC[C@H]2[C@@H](COC[C@@H](O)CN2C(=O)Nc2ccccc2)O1)c1ccccc1 | -11
C[C@@H]1CN([C@H](C)CO)C(=O)c2cccc(NS(=O)(=O)c3cn(C)cn3)c2O[C@@H]1CN(C)S(C)(=O)=O | -15
C[C@H](CO)N1C[C@H](C)[C@H](CN(C)Cc2ccc(-c3ccccc3)cc2)Oc2ccc(NC(=O)Nc3cccc4ccccc34)cc2C1=O | -5

4 compounds already listed, sorted by number of heavy atoms, low to high:
SMILES | Yeast UUG start
CO[C@H]1CN(C)C(=O)c2cc(NC(=O)C3CC3)ccc2OC[C@@H](C)N(Cc2ccccc2)C[C@H]1C | 6
CCCNC(=O)Nc1ccc2c(c1)C(=O)N(C)C[C@H](OC)[C@H](C)CN(Cc1cccnc1)[C@@H](C)CO2 | -14
Cc1noc(C)c1NC(=O)Nc1cccc2c1O[C@H](CN(C)S(=O)(=O)c1cccs1)[C@H](C)CN([C@H](C)CO)C2=O | 1
COc1ccc(NC(=O)Nc2ccc3c(c2)C(=O)N([C@H](C)CO)C[C@@H](C)[C@@H](CN(C)C(=O)Nc2c(C)noc2C)O3)cc1 | -44

Reprinted at random: 6 compounds from above, in no set order.
SMILES | Yeast UUG start
COc1ccc(NC(=O)N2CCCCN3[C@H](CO)[C@H](c4ccc(C5=CCCC5)cc4)[C@@H]3C2)cc1 | 10
CCC(=O)N1[C@H](CO)[C@H]2c3ccccc3N(S(=O)(=O)c3ccccc3C)C[C@H]21 | -2
CO[C@@H]1CN(C)C(=O)c2cc(NS(=O)(=O)c3cccc(C)c3)ccc2OC[C@@H](C)N(C(=O)Cc2cccnc2)C[C@H]1C | -14
CC(=O)N1[C@@H](CO)[C@@H](c2ccc(-c3ccccc3)cc2)[C@@H]1CNC(=O)C1CC1 | 0
OC[C@@H]1[C@H](c2ccc(-c3ccccc3)cc2)[C@H]2CN(Cc3ccccn3)CCCCN12 | -35
Cc1noc(C)c1NC(=O)Nc1cccc2c1O[C@H](CN(C)S(=O)(=O)c1cccs1)[C@H](C)CN([C@H](C)CO)C2=O | 1

Later entries.
SMILES | Yeast UUG start
CC=Cc1ccc2n(c1=O)C[C@H]1[C@H](CO)[C@@H](C(=O)NCCC)[C@@H]2N1CC1CC1 (mixture of isomers) | 6
COCCN(C[C@@H]1[C@H](c2ccccc2)[C@@H](CO)N1C(C)=O)C(=O)c1ccncc1 | -2
C[C@@H]1CN([C@@H](C)CO)C(=O)c2cccc(NC(=O)C3CCCCC3)c2O[C@@H]1CN(C)C(=O)Nc1ccc2c(c1)OCO2 | 8
O=C(c1ccccc1F)N1C[C@@H]2[C@H](c3ccccc31)[C@H](CO)N2C(=O)c1cccnc1 | 12
C[C@@H]1CN([C@@H](C)CO)C(=O)c2cccc(NC(=O)Nc3ccc(C(F)(F)F)cc3)c2O[C@H]1CN(C)C(=O)Nc1ccc(F)cc1 | -15
COCCNC(=O)C[C@H]1CC[C@@H]2[C@H](COc3ccc(NC(=O)Nc4cccc(F)c4)cc3C(=O)N2C)O1 | 5
CCC(=O)Nc1ccc2c(c1)C(=O)N(C)C[C@@H](OC)[C@@H](C)CN(CC1CCCCC1)[C@H](C)CO2 | -7
CCC(=O)Nc1ccc2c(c1)C(=O)N(C)C[C@@H](OC)[C@@H](C)CN(C(=O)Cc1cccnc1)[C@@H](C)CO2 | -13
C[C@@H]1CN([C@H](C)CO)C(=O)CCCn2nncc2CO[C@@H]1CN(C)Cc1ccccc1C(=O)O | 6
C[C@@H]1CN([C@@H](C)CO)C(=O)c2c(c3ccccc3n2C)-c2ccccc2CO[C@@H]1CN(C)S(=O)(=O)c1ccccc1 | 6
CCC(=O)N1CC[C@@H]2[C@H](CO)Nc3ccc(-c4ccc(C(=O)N(C)C)cc4)cc3[C@@H]21 | -6
O=C(CN1CCOCC1)N1CC[C@@H]2[C@@H](CO)Nc3ccc(-c4ccc(F)cc4)cc3[C@@H]21 | -4
CCCNC(=O)[C@@H]1[C@@H](CO)[C@@H]2Cn3c(ccc(-c4ccc(C(=O)N(C)C)cc4)c3=O)[C@@H]2N1CCC | 18
C[C@H]1CN([C@@H](C)CO)C(=O)c2cc(NS(=O)(=O)c3cn(C)cn3)ccc2O[C@@H]1CN(C)S(=O)(=O)c1ccc(F)cc1 | 0
COc1ccccc1S(=O)(=O)N1CC[C@H]2[C@@H](CO)N(C)c3ccc(C#Cc4ccccc4)cc3[C@H]21 | 14
OC[C@@H]1[C@H](c2ccc(-c3ccccc3)cc2)[C@@H]2CN(Cc3ccccn3)CCCCN12 | -30
C[C@@H]1CN([C@H](C)CO)C(=O)Cc2cc(NC(=O)Nc3ccc4c(c3)OCO4)ccc2O[C@@H]1CN(C)C | 6
CN1C[C@@H]2[C@H](c3ccccc31)[C@H](CO)N2C(=O)Nc1cccc(F)c1 | -23
C[C@H]1CN([C@@H](C)CO)C(=O)c2cc(NS(=O)(=O)c3ccccc3)ccc2O[C@H]1CN(C)Cc1ccc(Cl)c(Cl)c1 | 13
C/C=C/c1ccc([C@H]2[C@H](CO)N[C@H]2CN(C(=O)C2CCC2)C(C)C)cc1 | -10
O=C(C1CCOCC1)N1C[C@@H]2[C@H](c3ccccc31)[C@@H](CO)N2C(=O)Nc1cccc(F)c1 | -2
CO[C@@H]1CN(C)C(=O)c2ccc(NC(=O)C3CC3)cc2OC[C@H](C)N(CC2CC2)C[C@H]1C | 6
COc1ccccc1NC(=O)N1CCCCN2[C@H](CO)[C@@H](c3ccc(-c4cccc(C)c4)cc3)[C@@H]2C1 | 8
COc1ccc(-c2ccc3c(c2)[C@@H]2[C@@H](CCN2C(=O)c2ccncc2)[C@H](CO)N3C)cc1 | 5
CCCNC(=O)[C@H]1N[C@H]2c3ccc(C4=CCCCC4)c(=O)n3C[C@H]2[C@@H]1CO | 14
Cc1ccccc1-c1ccc([C@H]2[C@H]3CN(CC4CCOCC4)CCCCN3[C@H]2CO)cc1 | -3
CC(=O)N1CC[C@@H]2[C@H](CO)Nc3ccc(-c4ccccc4)cc3[C@@H]21 | -18
CN1C(=O)c2cc(NC(=O)NC3CCCC3)ccc2OC[C@@H]2O[C@H](CC(=O)O)CC[C@@H]21 | 3
CN1c2ccc(-c3ccc(F)cc3)cc2[C@H]2[C@H](CCN2S(=O)(=O)c2cccc(F)c2)[C@H]1CO | 3
CO[C@@H]1CN(C)C(=O)c2ccc(NC(=O)C3CC3)cc2OC[C@@H](C)N(CC2CCCC2)C[C@@H]1C | 26
COc1cccc(S(=O)(=O)N2C[C@@H](O)COC[C@H]3O[C@@H](CC(=O)N4CCN(C)CC4)CC[C@@H]32)c1 | -12
COCC(=O)Nc1ccc2c(c1)OC[C@@H](C)N(C)C[C@@H](C)[C@H](OC)CN(C)C2=O | 19
COc1ccc(S(=O)(=O)Nc2ccc3c(c2)C(=O)N([C@H](C)CO)C[C@@H](C)[C@@H](CN(C)Cc2ccc(C(F)(F)F)cc2)O3)cc1 | 10
C[C@H]1CN([C@@H](C)CO)C(=O)CCCn2cc(nn2)CO[C@H]1CN(C)S(=O)(=O)c1ccc(-c2ccccc2)cc1 | 8
O=C(c1ccc2c(c1)OCO2)N1C[C@H]2[C@@H](c3ccccc31)[C@H](CO)N2C(=O)CC1CC1 | 4
CC(=O)N1CCCCN2[C@H](C1)[C@@H](c1ccc(C#Cc3ccccc3F)cc1)[C@@H]2CO | -2
COc1cccc(-c2ccc3c(c2)[C@@H]2[C@@H](CCN2S(=O)(=O)c2ccccc2C)[C@H](CO)N3)c1 | 0
CNC[C@@H]1Oc2c(NC(=O)Nc3ccccc3)cccc2C(=O)N([C@@H](C)CO)C[C@@H]1C | -11
O=C(c1cccnc1)N1C[C@H]2[C@@H](c3ccccc31)[C@H](CO)N2C(=O)CN1CCOCC1 | -13
CN(C)C(=O)C[C@H]1CC[C@H]2[C@@H](COC[C@@H](O)CN2C(=O)C2CCOCC2)O1 | -7
C[C@H]1CN([C@@H](C)CO)C(=O)Cc2cc(NS(=O)(=O)c3ccccc3)ccc2O[C@@H]1CN(C)Cc1ccncc1 | -16
Cc1nn(C)cc1NC(=O)C[C@H]1CC[C@H]2[C@H](COc3ccc(NC(=O)Nc4cccc(Cl)c4)cc3C(=O)N2C)O1 | -13
CNC[C@@H]1Oc2c(NS(=O)(=O)c3ccccc3)cccc2C(=O)N([C@@H](C)CO)C[C@@H]1C | -8
OC[C@@H]1[C@H](c2ccc(-c3ccc(F)cc3)cc2)[C@H]2CN(Cc3ccccn3)CCCCN12 | -38

Arranged by the number under Yeast UUG start (rising): some entries from above.
| mol | Yeast UUG start |
| --- | --- |
| OC[C@@H]1[C@H](c2ccc(-c3ccc(F)cc3)cc2)[C@H]2CN(Cc3ccccn3)CCCCN12 | -38 |
| C[C@H]1CN([C@@H](C)CO)C(=O)Cc2cc(NS(=O)(=O)c3ccccc3)ccc2O[C@@H]1CN(C)Cc1ccncc1 | -16 |
| CNC[C@@H]1Oc2c(NS(=O)(=O)c3ccccc3)cccc2C(=O)N([C@@H](C)CO)C[C@@H]1C | -8 |

Source: PubChem BioAssay
